RN4220 kill: kills Staphylococcus aureus RN4220; S. aureus RN4220 growth, OD600, 16 h; inhibition, % (test concentration not listed); 330,000 compounds, 0.33% hits;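 active means z-score of -3 or lower and OD600 up to 0.18 on both plates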;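 further: plate controls were untreated cells for no effect and reference antibiotic for full effect; stock transfer was 100 nL into about 80 µL; one replicate is shown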
BJeLR lethal: BJeLR cell viability loss. BJeLR (HRASV12) viability, CellTiter-Glo ATP luminescence, 48 h; reference of the scale not given here. inhibition, % (concentration not given with the values). 300,000 compounds, 0.17% hits. AID 1554;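 active means replicate mean above 50%; inconclusive means above 50% but judged a plate artefact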;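 further: 50 nL library stock added to about 25 µL; numbers are from one replicate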
PrP 5UTR inh: inhibition of PrP 5' UTR reporter expression; cell-based PrP 5' UTR mRNA reporter, plate reader; inhibition, % (test concentration not listed); 340,000 compounds, 0.35% hits;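 active means every replicate at 50% or more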;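 further: 0 = median of the neutral control wells; tested in H4 reporter cells; numbers are from one replicate; inactives centre near -14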
Autofluor counter: compound fluorescence in toxin protease inhibitor counterscreen; compound autofluorescence counterscreen, microsphere flow cytometry; stronger effect = higher value; fluorescence intensity (no concentration beside the values); 360,000 compounds, 3.1% hits;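 active means at least 3 SD above the mean of all compounds, about 16000 in these data; inconclusive means too few beads counted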;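 further: 100 nL of 1 mM stock went into each well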
ugtP null kill: growth inhibition of S. aureus ugtP deletion strain | S. aureus RN4220 ugtP deletion, OD600 growth, 16 h; some inactives read as strong as hits | growth inhibition, % (no concentration beside the values) | 330,000 compounds, 0.54% hits;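 active means z-score under -3 and OD600 up to 0.15 on both plates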;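 further: plate controls were untreated wells for no effect and antibiotic for full effect; wells of about 80 µL received 100 nL stock; the first replicate is given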
Mtb hypoxia inh: inhibitors of hypoxia-regulated fluorescent reporter in Mycobacterium tuberculosis; M. tuberculosis hypoxia-regulated fluorescent reporter, fluorescence; fluorescence inhibition, % (no concentration beside the values); 300,000 compounds, 0.1% hits;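 active means 35 to 45% if threefold the growth effect, above 45% if 1.5-fold the growth effect; inactive means the rest, general growth blockers included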;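 further: wells of about 50 µL received 100 nL stock; 0% = vehicle wells and 100% = reference inhibitor wells; whole bacteria with a GFP reporter of the hypoxia response; strong numbers were not always called active; many hits fall short of the cut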
Mtb hypoxia inh growth: also measured in Mtb hypoxia inh; calls as there; growth inhibition, %; measured here: M. tuberculosis growth (absorbance);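 0% = vehicle and 100% = reference antibiotic; read after six days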
The depositor's hits bear a star; ? = inconclusive; . = not tested or not shown.

The opening 5 records as a preview:
SMILES | RN4220 kill | BJeLR lethal | PrP 5UTR inh | Autofluor counter | ugtP null kill | Mtb hypoxia inh | Mtb hypoxia inh growth
O=C(Nc1ccc(Cl)cc1)Nc1ccc(Br)cn1 | 0.7 | -13 | -57 | 4051 | 2 | -2 | -6
COc1ccc(Cl)cc1NC(=O)c1cc(-c2ccc(C)cc2O)n[nH]1 | 5.5 | 5 | -16 | 4202 | 9 | 13 | 9
COc1ccc(NC(=O)N2CCC(Cc3ccccc3)CC2)cc1 | 4.3 | 3 | -15 | 2044 | 3 | 14 | 5
COC(=O)c1sc(-c2cccs2)cc1N | 1.4 | -3 | -40 | . | 17 | 5 | 11
C/C(=N\NC(=O)c1ccccc1O)c1cccc(NC(=O)c2ccccc2)c1 | . | 8 | -20 | 3919 | . | . | .

All compounds of this part, from the start:
SMILES | RN4220 kill | BJeLR lethal | PrP 5UTR inh | Autofluor counter | ugtP null kill | Mtb hypoxia inh | Mtb hypoxia inh growth
O=C(Nc1ccc(Cl)cc1)Nc1ccc(Br)cn1 | 0.7 | -13 | -57 | 4051 | 2 | -2 | -6
COc1ccc(Cl)cc1NC(=O)c1cc(-c2ccc(C)cc2O)n[nH]1 | 5.5 | 5 | -16 | 4202 | 9 | 13 | 9
COc1ccc(NC(=O)N2CCC(Cc3ccccc3)CC2)cc1 | 4.3 | 3 | -15 | 2044 | 3 | 14 | 5
COC(=O)c1sc(-c2cccs2)cc1N | 1.4 | -3 | -40 | . | 17 | 5 | 11
C/C(=N\NC(=O)c1ccccc1O)c1cccc(NC(=O)c2ccccc2)c1 | . | 8 | -20 | 3919 | . | . | .
CCNC(=O)C(=O)NCCC1CCCCN1S(=O)(=O)c1cccs1 (stereo not drawn) | 2.0 | -2 | -15 | ? | 5 | 7 | 1
COc1ccc(CC2(CO)CCN(Cc3ccc(OC(F)(F)F)cc3)CC2)cc1 | -2.4 | 2 | -17 | 3983 | 0 | 3 | 1
CCCCn1c(=NC(=O)c2ccc3c(c2)OCO3)c(C#N)cc2c(=O)n3cccc(C)c3nc21 | -6.7 | . | -8 | 2551 | -9 | . | .
O=S(=O)(c1ccc2oc3ccc(S(=O)(=O)N4CCCCC4)cc3c2c1)N1CCCCC1 | -2.7 | -8 | -5 | 9112 | -11 | 3 | -4
Cc1c(Cl)cccc1NC(=S)N1CCCCCC1 | 2.6 | -3 | -4 | 4662 | 9 | 5 | -6
COc1ccc(-c2c(NC(=O)c3ccco3)n(C)c3ccccc3c2=O)cc1 | 2.3 | 5 | -10 | 8076 | 1 | 4 | 0
O=C(NCc1cccc(Br)c1)C1CC(c2ccccc2[N+](=O)[O-])=NO1 (stereo not drawn) | 6.8 | 14 | -31 | 4133 | 13 | 24 | 14
COC(=O)N1c2ccccc2C=Cc2ccccc21 | 0.6 | 0 | 5 | 4077 | 7 | 12 | 13
C/C(=N\NS(=O)(=O)c1ccc(C)cc1)c1ccc(Br)s1 | . | -14 | 3 | 11501 | . | . | .
CCOC(=O)c1cccc(OCC(O)CNCCOc2ccccc2F)c1 (stereo not drawn) | 1.0 | -12 | -9 | 5465 | 9 | 2 | 1
Cc1nn(Cc2ccc(Cl)cc2)c(C)c1NC(=O)/C=C/c1cnn(C)c1 | 6.5 | -4 | -3 | 2490 | 5 | . | .
COc1ccc(Cl)cc1NC(=O)CSc1nc(NS(=O)(=O)c2ccc(C)cc2)cc(=O)[nH]1 | -5.1 | -11 | -4 | 4743 | -8 | -5 | -4
Cc1ccccc1OCC(=O)Nc1cnn(CCCC(=O)O)c1 | 4.3 | 1 | -17 | 3460 | 8 | 0 | 5
CC(=O)Nc1ccc(NC(=O)C(C)OC(=O)CNC(=O)c2sc3ccccc3c2Cl)cc1 (stereo not drawn) | 2.6 | -11 | -12 | 1968 | 2 | 7 | 3
Cc1c(Cc2ccccc2)c(=O)oc2cc(OCC(=O)N[C@@H](Cc3ccccc3)C(=O)O)ccc12 | 6.2 | -6 | -5 | 4227 | 8 | . | .
Cc1ccccc1Cn1c([N+](=O)[O-])cnc1C | 4.1 | 4 | -36 | 12578 | 4 | 6 | -10
O=C(CSc1nnc(Cc2cccs2)n1CCc1ccccc1)N1CCCc2ccccc21 | 0.5 | -19 | -18 | 23460* | -6 | 5 | 6
Cc1ccc(S(=O)(=O)Nc2c(C)n(C)n(-c3ccccc3)c2=O)cc1C(=O)NCc1ccccc1 | 1.8 | . | -10 | 3879 | 4 | 6 | -12
c1ccc(CNc2c3c(nc4ncnn24)CCCC3)nc1 | 1.3 | -19 | -21 | 3976 | 5 | . | .
O=C(Cn1cnc2c(NCc3ccccc3)ncnc21)NCCc1cc2ccccc2[nH]1 | 0.1 | . | -4 | 3128 | 2 | 0 | 4
CO/N=C/C=C1/N(C)c2ccccc2C1(C)C | . | 0 | 0 | 3388 | . | . | .
Cc1cc(NC(=O)CON=C(N)CC(=O)Nc2ccccc2Cl)ccc1Br | 1.2 | . | -4 | 5556 | -11 | -3 | 7
COc1ccc(/C=C/C(=O)Oc2cc(O)cc(O)c2)cc1 | . | 0 | -3 | 2941 | . | . | .
COc1ccc(N(CC(=O)Nc2cc(C)on2)S(=O)(=O)c2cc(C)ccc2C)cc1 | 4.0 | -13 | -16 | ? | 11 | 1 | -7
CCOc1ccc2nc(Cl)c(C3CC(c4ccccc4)=NN3C(=O)c3cccs3)cc2c1 (stereo not drawn) | 6.9 | 6 | -5 | 2411 | 8 | -5 | 2
O=C1CC2OCC=C3CN4CCC56c7cc([N+](=O)[O-])ccc7N1C5C2C3CC46 (stereo not drawn) | 5.5 | -8 | -25 | 2112 | 4 | -4 | 5
Fc1ccc(-c2nnc3n2CCCCC3)cc1 | 3.9 | 10 | -18 | 3403 | 6 | 2 | -1
O=C(C#Cc1ccccc1)c1ccc([N+](=O)[O-])cc1 | . | 10 | -18 | 4204 | . | . | .
O=C1NC(=O)C(CC(=O)N(c2ccccc2)C2(C(=O)NC3CCCC3)CCCCC2)N1 (stereo not drawn) | -2.8 | 3 | 2 | 2236 | -8 | . | .
CC(C)(C)C(=O)Nc1ccc(C(=O)NN=CC2CC3C=CC2C3)cc1 (stereo not drawn) | 2.7 | . | . | . | 1 | 6 | 1
NC(=O)CNc1n[nH]c(=S)[nH]c1=O | 3.6 | -3 | -10 | 2107 | -1 | 0 | 5
CC1(C)CC(=O)C2=C(C1)OC(N)=C(C#N)C2C#Cc1ccccc1 (stereo not drawn) | 0.1 | 1 | -10 | 2836 | 6 | 7 | 0
N=C1C(c2ccccc2)=C(O)CN1c1ccccc1 | 5.4 | -3 | -20 | 2582 | 11 | 1 | 5
COCc1nnc(NC(=O)COc2ccc3c(c2)OCO3)s1 | 10 | -9 | -16 | 3134 | 0 | -2 | -9
CC(=O)Nc1cccc(-c2nnc(SCC(=O)N3CCCCC3)n2C)c1 | 3.1 | -7 | -12 | 24749* | -1 | 5 | 8
Cc1nc2ccc(C(=O)NN=Cc3cc([N+](=O)[O-])ccc3O)cc2[nH]1 | 53 | . | . | . | 0 | 7 | 1
Cc1ccc(-c2nc(CN(Cc3cnn(C)c3)C(C)C)c(C)o2)o1 | -0.5 | 3 | -7 | 4249 | 3 | 9 | 3
COc1ccc(C(=O)Nc2ccc(Cl)cc2C(=O)NCCO)cc1 | -4.3 | 5 | -29 | 7615 | -4 | -1 | 2
CCn1c(SCC(=O)c2ccc(C)cc2)nnc1-c1ccncc1 | 3.6 | 3 | -29 | 10254 | 3 | 9 | 14
Cc1ccc(NC(=S)/N=C(\N)Nc2nc(C)c3cc(C)ccc3n2)c(C)c1 | . | -1 | -106 | 2622 | . | . | .
CCN(CC)c1ccc(C=NNC(=O)c2c(Cl)cnn2C)c(O)c1 | 5.3 | . | . | . | 7 | 14 | -2
O=C(NCc1ccco1)c1cccc2c1C(=O)c1ccc(C=Cc3ccccc3)cc1S2(=O)=O | 6.4 | . | . | . | -12 | 10 | 9
CC(=O)Nc1ccc(OCC(=O)c2cc(C)ccc2C)cc1 | 4.3 | -10 | -6 | 2564 | 2 | . | .
Cc1cccc(/N=C/c2nc(-c3ccccc3Br)oc2O)n1 | . | -4 | -23 | 1980 | . | . | .
Cc1ccc(C(=O)CNc2ccccc2)cc1 | 4.0 | 0 | -32 | 4345 | 8 | 3 | 2
N#Cc1ccccc1NC(=O)CSC1=Nc2ccccc2C2CC=NN12 (stereo not drawn) | 0.9 | 1 | -9 | 4424 | 4 | 3 | 4
Cc1ccc2c(=O)c(C(=O)c3ccc(F)cc3)cn(CC(=O)NCc3ccco3)c2n1 | -0.4 | 6 | -20 | 6139 | -1 | 5 | 5
CCN(CC)c1ccc(N=Cc2c(O)n(-c3cc(OC)ccc3OC)c(=O)[nH]c2=O)cc1 | -5.3 | -11 | 0 | 3427 | -5 | 10 | 12
CCc1cc(=O)oc2cc(C)cc(OCC(=O)NCCCN3CCOCC3)c12 | 6.1 | 8 | -12 | 4410 | 13 | 4 | -8
Cc1ccc(S(=O)(=O)N2CCC(C(=O)N[C@@H](C)C(=O)NCC3CCCO3)CC2)cc1 (stereo partly drawn) | 3.5 | 7 | -17 | 4287 | 7 | 6 | 12
COc1ccc(-c2nn(-c3ccccc3)cc2CN2CCCO2)c(F)c1 | 3.8 | 4 | -21 | 4760 | 4 | 14 | 3
COc1ccc(-c2noc(CCN3C(=O)c4ccccc4C3=O)n2)cc1OC | 5.4 | 1 | -23 | 10723 | -9 | -3 | 11
Cc1nn(C)cc1NC(=O)c1cc2nc(-c3ccco3)cc(C(F)(F)F)n2n1 | -14 | 7 | 11 | 3878 | 2 | 4 | 3
CCCNC(=S)Nc1ccc(Cl)cc1Cl | 1.0 | 8 | -18 | 2164 | 1 | 5 | 2
COc1cc(SC)ccc1C(=O)Nc1c(C)cccc1C | 20 | -8 | -21 | 4030 | -42 | 10 | 9

Continuation.
SMILES | RN4220 kill | BJeLR lethal | PrP 5UTR inh | Autofluor counter | ugtP null kill | Mtb hypoxia inh | Mtb hypoxia inh growth
Cc1ccc(-c2cc(NC(=O)c3ccccc3)on2)cc1 | 2.4 | 0 | -83 | 2910 | 1 | 4 | -5
CCc1ccccc1N1CC23C=CC(O2)C(C(=O)OC)C3C1=O (stereo not drawn) | 2.3 | 3 | -39 | 5446 | 7 | . | .
COc1ccccc1CN1CCNC(=O)C1CC(=O)NCCC1=CCCCC1 (stereo not drawn) | 5.1 | 10 | -28 | 4972 | 6 | -1 | 4
Cc1cccc(N2CCN(S(=O)(=O)c3ccc4c(c3)NC(=O)CS4)CC2)c1C | -4.5 | 5 | -23 | ? | -21 | 6 | 4
CC(C)CC(CNC(=O)OC(C)(C)C)NC(=O)c1nc[nH]c1C(=O)NC(CC(C)C)C(=O)CNCC(CC(C)C)NC(=O)c1nc[nH]c1C(=O)NC(Cc1c[nH]c2ccccc12)C(=O)OC(C)(C)C (stereo not drawn) | 2.9 | . | . | . | 0 | 1 | 17
COC(=O)C1=C(C(=O)OC)C2N(C)c3ccccc3[C@@]23CC(CO)N(C(=O)NCCBr)C3=N1 (stereo partly drawn) | -4.5 | . | . | . | 28 | 1 | 8
Cc1ccc2c(c1)c(=O)c1c3n2CCN(CC2CO2)C3CC1 (stereo not drawn) | 2.5 | -3 | -33 | 4906 | 4 | 6 | -1
C=CCOc1ccc(C=NNC(=O)C(=O)N2CCCCCC2)cc1OC | 0.9 | . | . | . | 7 | 2 | -6
CC(=O)Nc1cccc(CNCc2cccc(NC(C)=O)c2)c1 | 4.2 | -3 | -24 | 2151 | 11 | 0 | -1
Cc1cc(OCC(=O)N(Cc2ccco2)C2CCS(=O)(=O)C2)ccc1Cl (stereo not drawn) | 4.2 | 5 | . | 3267 | -6 | 2 | 9
COc1cccc(/C=C/C(=O)Nc2ccc3c(c2)OCCO3)c1 | 0.3 | 7 | -97 | 4191 | -6 | -4 | -5
COc1ccc(CNC(=O)C(C)OC(=O)C23CC4CC(CC(O)(C4)C2)C3)cc1 (stereo not drawn) | 5.7 | -9 | -7 | 2213 | 2 | 17 | 10
Cc1ccc(Cc2nnc(SCC(=O)Nc3ccc(C)cc3C)[nH]c2=O)cc1 | 5.3 | 3 | 0 | 5561 | -2 | -5 | 1
O=C(NCc1cccs1)c1cc2c(s1)CS(=O)(=O)C2 | 1.2 | -3 | -25 | 8057 | 5 | -1 | 0
CCC(=O)Nc1cccc(NC(=O)c2ccc3c(c2)OCCO3)c1 | 12 | 3 | -91 | 7816 | 0 | 5 | 0

Screening results (PubChem BioAssay)

Outcome played no part in choosing rows; overall some 4% were active at least once.
